E coli growth = E. coli growth inhibition, primary screen, OD600; Escherichia coli growth, 23 h; active compounds read low; OD600 absorbance (test concentration not listed); actives 0.21% (n = 330,000); AID 1053175, 2014;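 active means OD600 absorbance below the run mean of sample wells minus 3.6 SD, in any replicate, cut at about 0.56 in these data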;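 further: stock transfer was 300 nL into about 60 µL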
AF4-AF9 inh = inhibitors of AF4 peptide binding to AF9, primary screen, biochemical, AlphaScreen, biotin-AF4 peptide, FLAG-AF9, single point | inhibition, % at 10 µM | actives 0.47% (n = 350,000) | AID 651704, 2012;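 active means every replicate reaching a set inhibition limit, whatever the replicate mean, cut at about 25% in these data; inconclusive means mean inhibition reaches that limit but some replicates miss it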;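 further: 0% = plate neutral control median and 100% = total signal loss; the record names both 10 and 1 µM as test concentration; the first replicate is given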
UCH37 DUB inh = inhibitors of human UCH37 deubiquitinase, primary screen, biochemical, Ub-AMC cleavage, fluorescence; Ubiquitin carboxyl-terminal hydrolase isozyme L5 (Homo sapiens), Q9Y5K5; purified proteasome/UCH37; inhibition, % (concentration not given with the values); actives 0.33% (n = 330,000); AID 588478, 2011;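 active means mean of two replicates above 20%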;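 further: 0% = compound-free wells with enzyme and 100% = wells lacking proteasome; stock transfer was 100 nL into about 20 µL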
Target sequence (Q9Y5K5 whole entry, looked up): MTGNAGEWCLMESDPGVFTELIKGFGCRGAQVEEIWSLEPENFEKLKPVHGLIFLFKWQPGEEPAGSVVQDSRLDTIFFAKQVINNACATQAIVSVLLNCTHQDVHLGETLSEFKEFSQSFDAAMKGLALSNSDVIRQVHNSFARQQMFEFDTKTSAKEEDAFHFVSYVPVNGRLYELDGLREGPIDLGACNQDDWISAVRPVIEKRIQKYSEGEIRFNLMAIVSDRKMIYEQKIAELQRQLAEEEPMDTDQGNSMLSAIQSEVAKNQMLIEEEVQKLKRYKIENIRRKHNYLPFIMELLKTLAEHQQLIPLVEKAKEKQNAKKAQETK
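Material: human UCH37 enzyme supplied as purified proteasome complex. Measure: % inhibition of Ub-AMC cleavage fluorescence. Medium: pH 7.4 Tris-HCl (50 mM) with ovalbumin, ATP-MgCl2, DTT. Times: 30 min preincubation with enzyme, 25 min cleavage at room temperature. Detection: AMC fluorescence intensity at 355/460 nm.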
FGF22 binding = binders of human FGF22 protein, primary screen, FGF22 synaptogenesis inhibitor project, biophysical, thermal shift, single point. calls only at 9.99 µM. recombinant FGF22 thermal shift, SYPRO orange fluorescence; percent of sucrose octasulfate shift, DMSO zero. Fibroblast growth factor 22 (Homo sapiens), Q9HCT0. actives 1.5% (n = 340,000);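 active means melting point raised past a set limit in the mean and every replicate; inconclusive means no clear call; three in four hits are not shown here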
Target sequence (Q9HCT0 whole entry, looked up): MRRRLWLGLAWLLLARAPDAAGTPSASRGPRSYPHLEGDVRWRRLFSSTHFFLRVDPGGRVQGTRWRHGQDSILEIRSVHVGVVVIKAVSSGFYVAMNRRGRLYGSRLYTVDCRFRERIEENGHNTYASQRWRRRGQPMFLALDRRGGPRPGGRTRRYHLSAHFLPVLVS
HNF4A DNA FP = change in binding of human HNF4A to DNA, primary screen, biochemical, fluorescence polarization, FITC-DNA; Hepatocyte nuclear factor 4-alpha (Homo sapiens), P41235; 1 h; activity change, % at 10 µM; actives 0.3% (n = 360,000); in the data active means activity change above about 30%, passing the limit was not always enough;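 further: controls were the assay level and a saturating level of protein; the project sought stronger binding though the title names inhibitors; some compounds called inactive have numbers as strong as hits; positive values seem to mean higher polarization but the record does not say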
Target sequence (P41235 whole entry, looked up): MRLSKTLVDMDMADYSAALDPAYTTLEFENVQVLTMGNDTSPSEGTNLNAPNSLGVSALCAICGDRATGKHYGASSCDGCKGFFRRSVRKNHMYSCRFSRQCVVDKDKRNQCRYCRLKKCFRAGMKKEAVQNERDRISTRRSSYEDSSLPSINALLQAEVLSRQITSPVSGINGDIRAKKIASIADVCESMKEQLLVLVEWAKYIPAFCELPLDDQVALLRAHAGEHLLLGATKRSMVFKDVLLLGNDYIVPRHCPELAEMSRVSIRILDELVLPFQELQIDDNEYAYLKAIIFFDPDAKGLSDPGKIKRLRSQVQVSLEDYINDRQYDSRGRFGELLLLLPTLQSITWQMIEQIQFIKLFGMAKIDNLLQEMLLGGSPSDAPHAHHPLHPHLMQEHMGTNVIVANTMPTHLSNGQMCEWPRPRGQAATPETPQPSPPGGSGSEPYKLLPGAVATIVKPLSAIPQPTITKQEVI
Vif TR-FRET = inhibitors of Vif binding to APOBEC3G peptide, primary screen, biochemical, TR-FRET, GST-Vif 1-94, biotin-A3G peptide, dose response retest (AID 1117319); Virion infectivity factor (Human immunodeficiency virus type 1 group M subtype B (isolate …; TR-FRET GST-Vif / biotin-A3G peptide binding; higher % means a stronger effect; test concentration not given here; strong numbers were not always called active; inhibition, %; hits with a dose series show IC50 in µM; actives 0.57% (n = 260,000);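 active means above the screen mean plus three standard deviations and confirmed in dose response; inconclusive means results disagree or hit not tested in dose response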;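 further: Vif residues 1-94 fused to GST binding biotinylated APOBEC3G peptide 110-148; 0% = full assay without inhibitor and 100% = GST in place of GST-Vif; retest series ran down from 100 µM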
RanGTP-Imp inh = inhibitors of RanGTP-importin-beta interaction, primary screen, biochemical, FRET, CFP-Ran, YFP-importin-beta, homogeneous | cell-free CFP-Ran/YFP-importin-beta FRET ratio | Ran GTPase (GTP-bound) - importin-beta complex | inhibition, % (test concentration not listed) | actives 1.1% (n = 300,000);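 active means most replicates above 15%; inconclusive means exactly half above 15%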;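 further: 0% = DMSO wells and 100% = Ran loaded with GDP instead of GTP; wells of about 40 µL received 100 nL stock; the first replicate is given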
Active calls of the source: *; i = inactive; u = inconclusive; x = no result given; & = joins results of further samples. This is a subset; the hit share may differ from the screen's.

compound | E coli growth | AF4-AF9 inh | UCH37 DUB inh | FGF22 binding | HNF4A DNA FP | Vif TR-FRET | RanGTP-Imp inh
O=C(CCCn1c(=O)[nH]c2ccsc2c1=O)NCc1cccs1 | 0.7 | x | 3.4 | x | 1.8 | -7% | 3.1
CCCCOC(=O)CCc1c(C)n[nH]c1C | 0.68 | x | 1.5 | i | 2.7 | -6% | -2.0
Cn1c(CNC(=O)c2ccccc2F)nnc1SCC(=O)c1ccccc1 | 0.68 | 0.5 | 1.9 | i | -0.1 | x | 3.0
CCN(CC)CCNc1nc2c(c(=O)[nH]c(=O)n2C)n1CC(O)COc1ccc(Cl)cc1Cl (stereo unspecified) | 0.73 | x | 0.4 | x | -4.2 | -2% | -0.3
COc1cc(C2CC(=O)Oc3c2c(=O)n(C)c2ccccc32)cc(OC)c1OC (stereo unspecified) | 0.69 | -7.6 | -1.0 | i | -4.3 | 5% | 0.9
CCCCc1c(O)nc2ccccn2c1=O | 0.65 | -2.1 | 0.2 | i | 0.3 | x | 3.6
CC(NCCCOc1cccc2ccccc12)c1ccccc1 (stereo unspecified) | 0.58 | 7.1 | 3.7 | i | 2.6 | -4% | -0.7
CC1=NC(=O)C(N=Nc2cccc(C(=O)O)c2)N1c1ccccc1 (stereo unspecified) | 0.67 | 3.0 | 13 | i | 0.6 | 17% | x
Nc1cc(=O)[nH]n1C1CCCC1 | 0.69 | -2.1 | 0.0 | i | -3.2 | -1% | 6.2
CC1Oc2ccccc2OC1C(=O)Nc1ccccn1 (stereo unspecified) | 0.71 | x | 1.4 | x | 2.8 | 31% | -2.7
CCN1C(Nc2ccccc2)=NC[C@@H]1Cc1ccccc1 | x | -4.5 | 1.0 | i | 1.4 | x | -4.1
O=C1NC[C@@H](Cc2ccc(O)cc2)N(CC2CCCCC2)C1=O | x | 1.5 | 0.7 | i | 1.5 | -3% | -3.6
Cc1oc(-c2ccccc2)cc1C(=O)NC1CCN(Cc2ccccc2)CC1 | 0.68 | -5.9 | 3.5 | i | 0.3 | x | 0.1
O=C(COc1cc(O)c2c(=O)c3ccccc3oc2c1)OCc1ccccc1 | 0.75 | 3.6 | 6.0 | i | -5.8 | -5% | 4.7
COc1ccc(-c2nn(-c3ccccc3)cc2C(=O)O)cc1OC | 0.69 | 3.9 | 1.0 | i | 4.0 | -1% | 2.6
COC(=O)C1CCN(C(=O)C2CCN(C(=O)[C@@H](NS(=O)(=O)c3ccc(C)cc3)C(C)C)CC2)CC1 | 0.71 | -2.5 | 3.4 | i | 4.3 | x | -1.4
CCCCOP(=O)(c1ccc(N(C)C)cc1)C(O)c1ccncc1 (stereo unspecified) | 0.72 | x | 1.9 | x | -2.3 | 1% | -0.6
CCC(=O)NC1=C(NC(C)c2ccccc2)C(=O)c2ccccc2C1=O (stereo unspecified) | 0.73 | x | 2.6 | x | 29 | 24% | -3.1
Cc1cc(-c2n[nH]c(=S)n2Cc2ccco2)nn1C | 0.67 | -3.3 | 4.5 | i | -1.3 | 0% | 1.6
COc1ccc(OC)c(-c2cc(C(=O)Nc3cccc(Cl)c3)no2)c1 | 0.74 | -0.9 | -87 | i | 1.6 | 1% | -0.3
Cc1ccc(-n2nnc3c(=O)n(CC(=O)OCc4ccccc4)cnc32)cc1 | 0.69 | -0.2 | 2.4 | i | 2.0 | -3% | -1.4
COc1ccccc1NC(=O)C1CCCN1S(=O)(=O)c1ccc(Cl)cc1 (stereo unspecified) | 0.64 | 0.0 | 0.5 | i | -2.1 | x | 7.8
CCOC(=O)c1c(C)[nH]c(C(=O)CN2C(=O)NC(C)(c3ccc4ccccc4c3)C2=O)c1C (stereo unspecified) | 0.68 | x | 2.1 | x | -2.1 | 5% | -0.5
CN(C)c1ccc(/C=N/NC(=O)C2COc3ccccc3O2)o1 (stereo unspecified) | x | 6.7 | x | i | -3.2 | 17% | -0.2
Cc1ccc(S(=O)(=O)N2CCc3cc4c(cc3C2C)OCCCO4)cc1 (stereo unspecified) | 0.64 | 1.5 | 0.6 | i | 1.3 | x | 7.1
NC(=O)c1ccc(NC(=O)COC(=O)CCN2C(=O)c3ccccc3C2=O)cc1 | 0.69 | -1.4 | 3.3 | i | 2.0 | x | x
COc1ccc(/C=N/n2cnc3scc(-c4cccs4)c3c2=O)cc1OC | x | x | x | x | -2.5 | -7% | 0.1
O=C1CN(C(=O)c2cc([N+](=O)[O-])ccc2Cl)C(c2ccc(F)cc2)c2cc(F)ccc2N1 (stereo unspecified) | 0.69 | x | 4.5 | x | -1.5 | x | 2.8
CCn1ncc(/C=N\NC(=O)c2ccc3c(c2)c(C)c(C)n3Cc2ccccc2)c1C | x | x | x | x | 2.0 | -3% | 0.7
COC(=O)c1[nH]c2ccc(Cl)cc2c1NC(=O)CN1CCc2cc(OC)c(OC)cc2C1 | 0.75 | x | 0.4 | x | -1.3 | -3% | 0.7
CN(C)CCCCOc1ccccc1F | 0.73 | 0.5 | 4.5 | i | 2.4 | 16% | -4.8
Cc1ccc(C)n1NC(=O)c1cccs1 | 0.74 | x | 1.0 | x | 8.5 | 2% | -3.4
COc1ccc(N2CCN(CCC(O)c3ccc4ccccc4c3)CC2)cc1 (stereo unspecified) | 0.63 | -0.1 | 2.6 | i | -0.3 | 12% | 2.1
CN(Cc1cccs1)C(=O)/C=C/c1ccccc1[N+](=O)[O-] | 0.68 | -0.5 | 5.1 | i | -1.9 | -2% | 1.6
CC(C)(C)NC(=O)C1c2ccccc2OCC(=O)N1CCCN1CCOCC1 (stereo unspecified) | x | -1.1 | x | i | 4.2 | x | x
COc1ccc(C(C#N)=C2C=CC(=NO)c3ccccc32)cc1 | x | 5.9 | x | i | 3.8 | x | x
COc1cc(NC(=O)c2csc(-c3ccncc3)n2)cc(C(=O)Nc2cccc(C(F)(F)F)c2)c1 | 0.73 | -1.0&3.3 | 3.3 | i | 3.1&0.3 | x | 3.4
COc1cc(C2NC(=O)C(C#N)=C(S)N2c2ccc(C)cc2)ccc1OC(C)C (stereo unspecified) | 0.69 | x | 1.6 | x | -0.2 | 5% | -3.0
COc1ccc(NC(=O)CSc2cc(C)ccc2C)cn1 | 0.66 | 0.1 | -0.1 | i | -6.7 | 2% | -2.4
CC1(C(=O)NS(=O)(=O)c2ccc(C#N)cc2)CCN1C(=O)CCc1ccc(Cl)cc1Cl (stereo unspecified) | x | -2.1 | x | i | -1.0 | x | x
Cn1cc(C=O)c2cc(S(=O)(=O)N3CCOCC3)ccc21 | 0.72 | 0.2 | 4.2 | i | 1.4 | 1% | -4.2
CCOc1ccc(-c2nnn(CC#N)n2)cc1OC | 0.7 | x | 3.4 | x | -2.1 | 2% | -4.9
CCN(CC(=O)Nc1ccc(NC(C)=O)cc1)C(=O)C1COc2ccccc2O1 (stereo unspecified) | 0.65 | -0.8 | 2.5 | i | 0.0 | x | u
NC(=O)NCc1cccnc1 | 0.66 | -0.1 | 0.7 | x | -1.6 | x | 1.0
Cc1cc(C)n(-c2ncc(-c3ccccc3)nn2)n1 | 0.73 | -2.7 | 5.5 | i | 4.7 | 75% | -3.3
COc1ccc(NS(=O)(=O)c2ccc(C)c(C(=O)NCC(c3cccs3)N3CCOCC3)c2)cc1 (stereo unspecified) | 0.66 | 0.9 | 2.0 | i | -3.3 | -7% | 2.6
CCCN1CCN(C(=O)c2oc3c(Cl)cccc3c2C)CC1 | 0.67 | -6.7 | 2.7 | i | -1.6 | x | -0.5
Cc1ccc(NC=C(S(=O)(=O)c2ccccc2)S(=O)(=O)c2ccccc2)c(C)c1 | 0.73 | x | 3.8 | x | -1.5 | -5% | -3.0
CC1CCc2c(nc3ncnn3c2N2CCN(c3ccccc3F)CC2)C1 (stereo unspecified) | 0.75 | x | 4.3 | x | -0.1 | -6% | 3.1
COc1ccc(CN2C(=O)CC(Cc3cc(C)cc(C)c3)C2=O)cc1OC (stereo unspecified) | 0.7 | -207 | 4.7 | i | 2.9 | x | 0.4
CC1=C(C)CC(C(=O)c2ccccc2)C(C(=O)O)C1 (stereo unspecified) | 0.67 | 9.2 | 3.2 | i | 1.7 | -2% | -0.8
C=CCn1c(-c2cccn(Cc3ccccc3)c2=O)n[nH]c1=S | 0.68 | x | 0.7 | x | 2.0 | 19% | 1.3
CC(Nc1nc(-c2ccc3c(c2)NC(=O)CO3)cs1)c1ccccc1 (stereo unspecified) | 0.68 | 1.7 | 2.8 | x | 0.5 | x | -2.5
CC(=O)N1CC[n+]2c(-c3ccc(Cl)cc3Cl)csc21 | x | x | x | x | -0.2 | 13% | 2.3
Cc1ccc(-n2[nH]c(C)c(C=Nc3ccc4[nH]c(=O)[nH]c4c3)c2=O)cc1C | 0.78 | x | -0.5 | x | 1.0 | -2% | -3.3
CCCCNC(=O)CN(c1ccc(Cl)c(Cl)c1)S(C)(=O)=O | 0.69 | x | 2.5 | x | 2.0 | -5% | u
COc1ccc(CNC(=O)c2c(C)nc3ccccn23)cc1 | 0.69 | x | 0.1 | x | 0.1 | x | 3.3
CC(=O)c1ccc(-c2cnc3c(NC=O)cc(-c4ccc(N5CCN(C)CC5)cc4)cn23)cc1 | x | 12 | x | i | 7.2 | x | x
COC(=O)c1cn(NC(=O)C2CCC(C)CC2)c(=O)c2ccccc12 (stereo unspecified) | 0.7 | x | -0.6 | x | -0.6 | -8% | 0.6
COC(=O)Nc1ccc(S(=O)(=O)N2CCC(C(=O)N3CCC(C)CC3)CC2)cc1 | 0.64 | -2.3 | 0.7 | i | 1.1 | 1% | -0.1

By substructure, those above containing an aryl thioether with sulfur outside any ring
compound | E coli growth | AF4-AF9 inh | UCH37 DUB inh | FGF22 binding | HNF4A DNA FP | Vif TR-FRET | RanGTP-Imp inh
Cn1c(CNC(=O)c2ccccc2F)nnc1SCC(=O)c1ccccc1 | 0.68 | 0.5 | 1.9 | i | -0.1 | x | 3.0
COc1ccc(NC(=O)CSc2cc(C)ccc2C)cn1 | 0.66 | 0.1 | -0.1 | i | -6.7 | 2% | -2.4

Later entries:
compound | E coli growth | AF4-AF9 inh | UCH37 DUB inh | FGF22 binding | HNF4A DNA FP | Vif TR-FRET | RanGTP-Imp inh
O=C(Cc1ccc([N+](=O)[O-])cc1)c1c(O)cc(O)cc1O | 0.58 | -3.1 | 2.7 | i | -0.2 | 10% | -4.5
CN(C)CCNS(=O)(=O)c1ccc(N2CCN(c3ccc(F)cc3)CC2)c([N+](=O)[O-])c1 | 0.65 | 28* | 2.7 | i | 0.0 | x | -3.2
O=C(NCc1ccccc1)C1c2ccccc2OCC(=O)N1Cc1ccccc1 (stereo unspecified) | x | -3.0 | x | i | 3.4 | x | x
Fc1ccc(NCc2cccnc2)cc1F | 0.68 | 5.2 | 3.0 | i | -16 | 8% | -1.3
Cc1ccc2c(CN3CCN(c4ccc(Cl)c(Cl)c4)CC3)cc(=O)oc2c1 | x | 0.1 | x | i | 3.9 | x | x
CC(/C=C/c1ccco1)=N/NC(=O)CNc1ccccc1C | x | -11 | x | x | -0.8 | 20% | -4.2
O=c1[nH]c2ccc(Cl)cc2c(-c2ccccc2)c1CN1CCOCC1 | 0.63 | x | -4.3 | x | 1.3 | 7% | x
O=C1S/C(=C\c2ccccc2)C(=O)N1CC(O)Cn1c2ccccc2c2ccccc21 (stereo unspecified) | 0.64 | x | 2.5 | x | -3.4 | -3% | -4.4
CC1CCN(C(=O)Cn2cc(C(=O)c3ccco3)c3ccccc32)CC1 | 0.71 | x | 8.0 | x | 1.5 | -3% | -2.0

Source: PubChem
